Screening results from PubChem BioAssay.
StopGo reporter – High Throughput Screening for Foot and Mouth Disease Virus Antivirals; human cells with a luciferase reporter of 2A StopGo recoding; control for the full effect not named in the record; Potency, µM (series often up to 57.9 µM), inactives show at the highest dose signal change, negative = less light; actives 1.2% (n = 410,000); AID 1159524, 2015; active = well fitted falling curve with a large enough effect; inconclusive = small, poorly fitted or top-dose-only effect; inactive = no such curve, though single readings can be large or run the other way; tested in HEK293T cells; note: % is set by controls: 0 for no effect and ±100 for the full control effect; nearly all actives have a fitted effect of over 45% in size; luciferase light after 4 h
Cruzain inh noDet – qHTS Assay for Promiscuous and Specific Inhibitors of Cruzain (without detergent). actives 2.3% (n = 200,000). purified cruzain, Z-FR-AMC fluorescence, no detergent. Potency, µM, without a hit: max response, negative = inhibition, actives largely listed as inhibitors. Cruzipain (Trypanosoma cruzi), P25779;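 note: plate controls were enzyme without inhibitor for no effect and buffer without enzyme for full effect; nearly all actives have a fitted effect of over 40% in size; top concentration of the series not given in the record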
Target sequence (P25779 123-467 limits assumed): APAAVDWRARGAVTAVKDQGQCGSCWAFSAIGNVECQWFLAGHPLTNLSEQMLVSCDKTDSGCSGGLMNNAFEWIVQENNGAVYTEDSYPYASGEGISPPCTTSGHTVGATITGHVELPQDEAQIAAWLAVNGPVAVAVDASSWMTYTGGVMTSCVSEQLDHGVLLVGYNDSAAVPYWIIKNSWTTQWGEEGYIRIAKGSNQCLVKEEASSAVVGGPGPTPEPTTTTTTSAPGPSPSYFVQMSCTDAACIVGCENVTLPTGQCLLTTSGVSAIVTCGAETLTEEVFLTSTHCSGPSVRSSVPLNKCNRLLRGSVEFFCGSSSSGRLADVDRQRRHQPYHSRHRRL
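Purified cruzain at 1.5 nM, pre-incubated 15 min with compound at room temperature in 100 mM sodium acetate pH 5.5, 5 mM DTT, 0.00005% Triton X-100. Reaction started with 2 uM Z-FR-AMC; AMC fluorescence increase over 60 s gives rate.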
RE007 growth inh – qHTS Assay for Inhibitors of the HIV-1 protein Vpr; actives 0.21% (n = 360,000); Potency, µM (doses to about 92.2 µM), for inactives: at the top dose activity change, negative = less growth; S. pombe RE007 Vpr strain, BacTiter-Glo ATP luminescence, 24 h; control for the full effect not named in the record; AID 651644, 2012; active = well fitted falling curve with a large enough effect; inconclusive = small, poorly fitted or top-dose-only effect; inactive = no such curve, though single readings can be large or run the other way;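 note: % is set by controls: 0 for no effect and ±100 for the full control effect; nearly all actives have a fitted effect of over 50% in size; the assay follows cell death caused by Vpr and the record does not say whether a fall means rescue or toxicity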
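Fission yeast RE007 carrying one integrated HIV-1 vpr copy, seeded at OD 0.01 in PMG+AL medium with 23 nL pinned compound. Grown 24 h at 30 degrees; viability read by BacTiter-Glo luminescence after 5 min.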
Marburg entry inh – qHTS for inhibitors of binding or entry into cells for Marburg Virus; Marburg virus pseudotyped entry inhibition, cell reporter; control for the full effect not named in the record; about a third of the inactives were read at about 46 µM; Potency, µM (series often up to 37.8 µM), without a hit: at the highest dose activity change, negative = inhibition, actives largely listed as inhibitors; actives 1.8% (n = 300,000); active = well fitted inhibition curve with a large enough effect; inconclusive = small, poorly fitted or top-dose-only effect, or effect the other way; inactive = flat fitted curve, though single readings scatter; tested in HEK293 cells; about a fifth of its hits are not listed in these tables; note: % is set by controls: 0 for no effect and ±100 for the full control effect; luciferase read-out
LASV entry inh – qHTS for Inhibitors of binding or entry into cells for Lassa Virus; Lassa virus pseudotype entry inhibition, cell reporter; control for the full effect not named in the record; Potency, µM (doses to about 37.9 µM), inactives show at the highest dose activity change, negative = inhibition, actives largely listed as inhibitors; actives 1.2% (n = 300,000); AID 540256, 2011; active means well fitted inhibition curve with a large enough effect; inconclusive means small, poorly fitted or top-dose-only effect, or effect the other way; inactive means flat fitted curve, though single readings scatter; tested in HEK293 cells; note: % is set by controls: 0 for no effect and ±100 for the full control effect; nearly all actives have a fitted effect of over 50% in size; luciferase read-out
SARS PLP yeast – qHTS of Yeast-based Assay for SARS-CoV PLP; S. cerevisiae expressing SARS-CoV PLpro, growth rescue; control for the full effect not named in the record; Potency, µM (doses to about 32.9 µM), for inactives: at the top dose activity, positive = growth rescue; actives 0.19% (n = 330,000); AID 485353, 2010; active means well fitted rising curve with a large enough effect; inconclusive means small, poorly fitted or top-dose-only effect; inactive means no such curve, though single readings can be large or run the other way; note: 0% is about no effect; nearly all actives have a fitted effect of over 55% in size; growth read by luminescence after 48 h
NS1 function inh – qHTS Assay for Inhibitors of Influenza NS1 Protein Function; S. cerevisiae slowed by influenza A NS1, growth recovery by OD600; Potency, µM (highest dose often 46.1 µM), inactives show at the top dose activity, positive = more growth; actives 0.4% (n = 270,000); AID 2326, 2010; active means well fitted rising curve with a large enough effect; inconclusive means small, poorly fitted or top-dose-only effect; inactive means no such curve, though single readings can be large or run the other way; note: nearly all actives have a fitted effect of over 50% in size
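In this qHTS, NS1 from influenza A is expressed in budding yeast, where it slows growth. Cells are switched from glucose to 2% galactose medium (pH 6.0, -URA), treated with compound, and growth recovery is read at OD600.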
Cruzain inh Det – qHTS Assay for Promiscuous and Specific Inhibitors of Cruzain (with detergent); Cruzipain (Trypanosoma cruzi), P25779; purified cruzain, Z-FR-AMC fluorescence, 0.01% Triton; Potency, µM, for the others: max response, negative = inhibition, usual class: inhibitors; actives 0.43% (n = 200,000); AID 1478, 2009;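 note: plate controls were neutral wells for no effect and buffer without enzyme for full effect; nearly all actives have a fitted effect of over 40% in size; top concentration of the series not given in the record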
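15 min RT preincubation of 1.5 nM cruzain with compound, then 2 uM Z-FR-AMC added; kinetic AMC fluorescence, 60 s delta. Triton X-100 0.01%, pH 5.5.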
Numbers without * were called inactive; u = inconclusive; x = no result given; & = joins results of further samples; [ ] = another dose, or the depositor's remark. Unless noted, calls come from the whole dose curve; as a rule, active = well fitted curve in the direction sought with a large enough effect; inconclusive = small, poorly fitted or top-dose-only effect, or another doubt; inactive = no such curve, though single readings can be large; an effect the other way counts as inactive or inconclusive. Potency is the fitted concentration of half-maximal effect.

[1] CC(Sc1ccccn1)C(=O)Nc1ccccc1 (stereo not drawn)
[2] O=C(/C=C/c1ccccc1Cl)NCCc1ccc(F)cc1
[3] Cc1cc2oc(C(=O)N3CCN(CCc4ccccn4)CC3)c(C)c2cc1C
[4] CCC1=NN(S(=O)(=O)c2ccc(C)cc2)C(O)(C(F)(F)F)C1 (stereo not drawn)
[5] CC1CCN(S(=O)(=O)c2ccc3c(c2)N(CC(=O)N2CCN(c4ccc(Cl)cc4)CC2)C(=O)CO3)CC1
[6] Cc1ccc(C2NC(c3ccc(C)cc3)C(C)C(=NO)C2C)cc1 (stereo not drawn)
[7] C=CCNc1sc(C(=O)c2ccc(Br)s2)c(N)c1C#N
[8] COc1ccc(NC(=O)C2CCCN(S(=O)(=O)c3ccc4c(c3)CC(C)N4C(C)=O)C2)cc1 (stereo not drawn)
assay / compound	1	2	3	4	5	6	7	8
StopGo reporter	88%[activator]	16%	-9%	0%	-21%	x	-11%	-23%
Cruzain inh noDet	-1%	-17%	x	x	14%	3%	16µM*	x
RE007 growth inh	-5%	-1%	-18%	1%	x	-12%	4%	-11%
Marburg entry inh	17%	u	x	8%[46.1 µM]	9%[46.1 µM]	u	4%	-15%[46.1 µM]
LASV entry inh	47%[14.3 µM]	4%	x	-9%	6%[46.1 µM]	u	-2%	-28%[46.1 µM]
SARS PLP yeast	1%	-12%	u	1%	x	-9%	-14%	2%
NS1 function inh	6%	-17%	-16%	x	x	-32%	-2%	11%
Cruzain inh Det	2.1%	-6.8%	x	x	-4.7%	-5.0%	-1.0%	x

7 entries picked at random from those above:
[1] CC(Sc1ccccn1)C(=O)Nc1ccccc1 (stereo not drawn)
[8] COc1ccc(NC(=O)C2CCCN(S(=O)(=O)c3ccc4c(c3)CC(C)N4C(C)=O)C2)cc1 (stereo not drawn)
[5] CC1CCN(S(=O)(=O)c2ccc3c(c2)N(CC(=O)N2CCN(c4ccc(Cl)cc4)CC2)C(=O)CO3)CC1
[7] C=CCNc1sc(C(=O)c2ccc(Br)s2)c(N)c1C#N
[6] Cc1ccc(C2NC(c3ccc(C)cc3)C(C)C(=NO)C2C)cc1 (stereo not drawn)
[2] O=C(/C=C/c1ccccc1Cl)NCCc1ccc(F)cc1
[3] Cc1cc2oc(C(=O)N3CCN(CCc4ccccn4)CC3)c(C)c2cc1C
assay / compound	1	8	5	7	6	2	3
StopGo reporter	88%[activator]	-23%	-21%	-11%	x	16%	-9%
Cruzain inh noDet	-1%	x	14%	16µM*	3%	-17%	x
RE007 growth inh	-5%	-11%	x	4%	-12%	-1%	-18%
Marburg entry inh	17%	-15%[46.1 µM]	9%[46.1 µM]	4%	u	u	x
LASV entry inh	47%[14.3 µM]	-28%[46.1 µM]	6%[46.1 µM]	-2%	u	4%	x
SARS PLP yeast	1%	2%	x	-14%	-9%	-12%	u
NS1 function inh	6%	11%	x	-2%	-32%	-17%	-16%
Cruzain inh Det	2.1%	x	-4.7%	-1.0%	-5.0%	-6.8%	x

(cont.)
[9] Cc1ccccc1C(=O)Nc1nnc(S(=O)(=O)N2CCCCCC2)s1
[10] CCC(=NCCC(c1ccccc1)c1ccccc1)c1c(O)[nH]c(=O)[nH]c1=O
[11] O=C(CCC(=O)N1CCOc2ccccc21)NCc1cccnc1
[12] COc1ccc(N2Cc3ccccc3C2=NC(=O)c2cccc([N+](=O)[O-])c2)cc1
[13] C=CCNCCCOc1ccc(C)cc1Br
[14] CCCc1cc(C(=O)Nc2sc3c(c2C#N)CCC3)no1
[15] CC(=O)C1=C(O)CC(C)(C)CC1=NCc1nc2ccccc2[nH]1
[16] Cn1c(SCCOc2ccc(Cl)cc2)nnc1-c1ccncc1
assay / compound	9	10	11	12	13	14	15	16
StopGo reporter	9%&12%	u	-6%	20%	24%	10%	-2%	0%
Cruzain inh noDet	1%	2%	x	-19%	9%	-16%	x	0%
RE007 growth inh	3%	-8%	5%	-7%	5%	-23%	-12%	-9%
Marburg entry inh	x	u	x	3%	u	-19%	1%[46.1 µM]	-3%
LASV entry inh	24%[46.1 µM]	u	x	18%	u	-24%	-26%[46.1 µM]	0%
SARS PLP yeast	11%	-1%	3%	8%	-12%	-21%	1%	-2%
NS1 function inh	-9%	22%	-4%	3%	0%	-21%	x	1%
Cruzain inh Det	-12%	-2.3%	x	-5.6%	1.5%	-7.7%	x	-0.4%

[17] COc1ccc(-c2[nH]ncc2CN2CCCCCCC2)c(OC)c1
[18] O=C(CNC(=O)c1ccc(OC(F)F)cc1)NCc1ccccn1
[19] COc1ccc(NC(=O)C(=O)NCc2ccncc2)c(OC)c1
[20] O=C(CSc1nnc(-c2ccccc2)o1)NC1CCCC1
[21] CCOc1ccc(-c2cc(C(=O)N3CCN(c4cccc(C)c4)C(C)C3)c3ccccc3n2)cc1 (stereo not drawn)
[22] Cc1ccc(OCCCCn2nnc3sc4c(c3c2=O)CCC(C)C4)cc1 (stereo not drawn)
[23] COCC(=O)N1CCC(Oc2ccc(C(=O)N(C)CCCC3CCCC3)cc2)CC1
[24] Cc1ccccc1C(=O)Nc1ccnn1C1CCN(C(=O)c2ccoc2)CC1
assay / compound	17	18	19	20	21	22	23	24
StopGo reporter	-8%	-16%	1%	14%	22%	-24%	u	-22%
Cruzain inh noDet	x	x	-2%	x	-24%	-12%	x	x
RE007 growth inh	-25%	1%	0%	3%	x	x	8%	10%
Marburg entry inh	-1%[46.1 µM]	9%	-1%	6%	x	-4%[46.1 µM]	x	9%
LASV entry inh	-1%	13%	-11%	u	x	u	x	-9%
SARS PLP yeast	0%	x	5%	-12%	x	x	-6%	2%
NS1 function inh	3%	x	13%	x	x	x	-18%	7%
Cruzain inh Det	x	x	5.6%	x	2.2%	0.5%	x	x

[25] CC(C)[Si]1(C(C)C)OCC2OC(n3cnc4c(N)ncnc43)C(N)C2O[Si](C(C)C)(C(C)C)O1 (stereo not drawn)
[26] Cc1ccc(-c2ccc(S(=O)(=O)N3CCN(C)CC3)cc2)cc1
[27] O=C(c1cc(=O)c2ccccc2o1)N1CCCc2ccccc21
[28] O=C(NC(=S)Nc1cc(C(F)(F)F)ccc1N1CCOCC1)c1sc2ccccc2c1Cl
[29] O=C(Nc1cccc(Cl)c1)C1CCN(C(=O)c2cccs2)CC1
[30] CC(C)OC(=O)c1cccc(-c2ccc(C=O)o2)c1
[31] COc1ccc(CCNC(=O)c2cnc3scc(C)n3c2=O)cc1OC
assay / compound	25	26	27	28	29	30	31
StopGo reporter	u	3%	5%	-17%	-24%	-11%	0%
Cruzain inh noDet	x	-26%	-5%	20µM*	x	0%	-8%
RE007 growth inh	49%	3%	18%	-7%	1%	-9%	4%
Marburg entry inh	13µM*	1%	-15%[46.1 µM]	x	-18%[46.1 µM]	u	x
LASV entry inh	u	17%	-1%	x	-17%	u	x
SARS PLP yeast	x	-2%	-4%	2%	-1%	-29%	-12%
NS1 function inh	x	11µM*	-8%	2%	17%	-31%	-22%
Cruzain inh Det	x	1.0%	3.0%	3.5%	x	-6.0%	-13%
